Six1-Eya2 inh – Six1/Eya2 interaction inhibition. Q15475+O00167. AlphaScreen GST-Six1/His-Eya2 binding, biochemical; hits give low values; control for the full effect not named in the record. activity change, % (no concentration beside the values). 360,000 tested, 0.56% active. AID 651725; in the data active = activity change below about -65%; inconclusive = about -30% to -65%; inactive = above about -30%; further: on the % scale 0 is the no-effect control and ±100 the full control effect; compound concentration not given in the record
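Homogeneous AlphaScreen proximity assay pairing GST-Six1 with His-tagged Eya2 (added as 5X mix: 250 nM and 500 nM) in 50 mM Tris pH 8.0, 300 mM NaCl, 1 mM TCEP. Glutathione donor and nickel acceptor beads; 1 h, 37 °C, dark.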
CtBP-E1A blk – inhibitors of CtBP/E1A interaction; activity change, % (no concentration beside the values); AlphaScreen GST-E1A/His-CtBP binding, 1536-well; hits give low values; control for the full effect not named in the record; 340,000 tested, 0.49% active; in the data active means activity change below about -65%; inconclusive means about -30% to -65%; inactive means above about -30%; further: on the % scale 0 is the no-effect control and ±100 the full control effect; compound concentration not given in the record
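Protein mix (5X: 125 nM each GST-E1A, His-CtBP) was incubated with pinned compound 2 h at 37 deg C in dark, in 50 mM Tris pH 8.0 buffer with 300 mM NaCl. Glutathione donor and nickel acceptor beads followed; AlphaScreen signal read after 1 h.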
gsp antag – antagonizes gsp, the McCune-Albright syndrome mutation; gsp-mutant cells, cAMP HTRF, 30 min; control for the full effect not named in the record; Potency, µM (series often up to 76.9 µM), inactives show at the top dose activity change, negative = inhibition, usual class: inhibitors; 340,000 tested, 0.4% active; active = falling curve of any shape with a large fitted effect; inconclusive = falling curve, mostly with a smaller effect; inactive = flat or rising curve; cell line not stated here;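 further: intracellular cAMP measured with PDE inhibitor Ro 20-1724 present during compound exposure; potency means the concentration at half of the fitted maximal effect; on the % scale 0 is the no-effect control and ±100 the full control effect; nearly all actives have a fitted effect of over 65% in size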
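HTRF cAMP read-out (cAMP-d2 plus anti-cAMP antibody-K in lysis buffer, 30 min RT). Before lysis, cells are exposed to compounds with […] for 30 min at 37C in DPBS containing Ca/Mg, BSA and Tween 20.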
D2 ag – human D2 receptor agonism in beta-arrestin assay; P14416; activation, % (no concentration beside the values); AID 624465; 360,000 tested, 0.084% active; DiscoveRx PathHunter D2 beta-arrestin, luminescence, 90 min; 100% = 57 uM dopamine signal; in the data active = activation above about 40%; inconclusive = about 15% to 40%; inactive = below about 15%; further: compound concentration not given in the record; the text of the record calls up to 30% inactive
Target sequence (P14416 whole entry, looked up): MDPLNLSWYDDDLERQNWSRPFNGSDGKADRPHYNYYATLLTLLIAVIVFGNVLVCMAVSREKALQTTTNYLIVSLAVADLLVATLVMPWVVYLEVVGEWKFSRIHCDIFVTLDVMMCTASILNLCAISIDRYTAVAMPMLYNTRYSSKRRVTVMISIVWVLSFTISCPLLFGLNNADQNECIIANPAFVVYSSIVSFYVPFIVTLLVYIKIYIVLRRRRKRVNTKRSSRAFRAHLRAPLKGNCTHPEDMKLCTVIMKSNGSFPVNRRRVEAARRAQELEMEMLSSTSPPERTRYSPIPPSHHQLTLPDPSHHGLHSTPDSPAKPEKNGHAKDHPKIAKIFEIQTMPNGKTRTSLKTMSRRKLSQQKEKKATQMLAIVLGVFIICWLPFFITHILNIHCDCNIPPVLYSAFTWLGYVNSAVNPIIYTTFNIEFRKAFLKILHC
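DiscoveRx PathHunter D2 beta-arrestin cells (2,100/well) attached overnight, then compound-stimulated 90 min at 37 C in HBSS/10 mM HEPES/0.1% Tween-20 buffer; beta-galactosidase complementation read by luminescence after 1 h at ambient temperature. Dopamine 57 uM final (EC100) as control.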
gsp ag – agonists of gsp mutant (McCune-Albright syndrome) | gsp mutant cells, cAMP HTRF, 30 min; control for the full effect not named in the record | Potency, µM (series often up to 76.9 µM), for inactives: top-dose activation (cAMP increase), hits mostly activators | 340,000 tested, 0.13% active | AID 624287; active = well fitted activation curve with a large enough effect; inconclusive = small, poorly fitted or top-dose-only effect, or another doubt; inactive = no such curve, though single readings can be large or run the other way; cell line not stated here;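 further: phosphodiesterase inhibitor Ro 20-1724 added with compounds to block cAMP breakdown; potency means the concentration at half of the fitted maximal effect; nearly all actives have a fitted effect of over 60% in size; about a fifth of the inactives were tested at one dose only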
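Cells in DMEM/10% FBS with G418 were pretreated with compounds in DMSO plus […] (300 uM stock) for 30 min at 37C. cAMP was measured by HTRF (cAMP-d2 plus anti-cAMP antibody-K) after 30 min at room temperature.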
D2 PAM – human D2 receptor positive allosteric modulation; 360,000 tested, 0.23% active; potentiation, % (test concentration not listed); P14416; DiscoveRx D2 beta-arrestin cells, luminescence, 90 min; 100% = 57 uM dopamine signal; active = potentiation of 50% or more; inconclusive = 30% to 50%; inactive = 30% or less;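 further: compound concentration not given in the record; tested on top of an EC20 dose of dopamine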
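PathHunter beta-arrestin assay in DiscoveRx D2 cells. Compounds were added with an EC20 of dopamine (50 nM final) for 90 min at 37 deg C. Luminescence was read 1 h after detection reagent, with 57 uM dopamine as the EC100 control.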
Numbers without * were called inactive; ? = inconclusive; . = not tested or not shown; [ ] = another dose, or the depositor's remark.

SMILES	Six1-Eya2 inh	CtBP-E1A blk	gsp antag	D2 ag	gsp ag	D2 PAM
COc1ccccc1Nc1nc(N)nc(CN2CCC(Cc3ccccc3)CC2)n1	-6	-22	-9%	-2.0	-13%	-15
CCSC1=NC2(CCCCC2)Nc2sc3c(c21)CCCC3	-7	-2	-15%	0.2	-86%[inhibitor]	10
COc1ccc(/C=C/C(=O)NCc2ccccn2)cc1	3	3	-9%	2.2	-12%	13
O=C(c1ccc(COc2ccccc2Br)cc1)N1CCCCC1	2	2	-8%	-0.4	-3%	-14
Cc1ccc(OC(=O)c2ccc(S(=O)(=O)N(C)C)cc2)c(-n2nc3ccccc3n2)c1	22	32	-10%	-4.3	3%	-7
O=C(COc1ccc(OCc2ccccc2)cc1)NC1CCOC1=O (stereo not drawn)	9	6	8%[15.4 µM]	1.2	-13%	12
CCc1ccc(-c2nc(CSCC(=O)N3CCN(c4ccccn4)CC3)c(C)o2)cc1	-9	-5	?	-2.0	-36%[inhibitor]	-3
O=S(=O)(c1cccc(C(F)(F)F)c1)N1CCN(c2ccccc2)CC1	1	12	3%	-3.0	1%	-8
O=S(=O)(c1ccc(OCC2CO2)cc1)c1ccc(OCC2CO2)cc1 (stereo not drawn)	5	.	-9%	-4.2	-29%	-3
CC(=O)N1CCN2C(=O)C1CCCC(=O)c1cc(C3CCCCC3)ccc12 (stereo not drawn)	9	-2	7%	0.7	-19%	2
COc1ccc(N2C(=O)C3CCCN3C2c2ccc(C)cc2)cc1 (stereo not drawn)	2	7	8%	-0.4	-79%[inhibitor]	-1
Cc1c(CN2CCN(c3cccc(C(F)(F)F)c3)CC2)c(=O)n(-c2ccccc2)n1C	0	-4	-4%	-4.5	10%	-26
N#Cc1ccccc1COC(=O)CCC(=O)c1cccs1	7	1	11%	2.6	14%	-2
Cc1ccc(CNC(=O)c2cc(Cl)cc(Cl)c2)n1C	5	8	3%	-0.1	-7%	-4
COc1cccc(Oc2nc3ncn(Cc4ccccc4)c3c(=O)n2C)c1	-3	-1	4%	-2.4	-23%	0
COC(=O)N1CCN(S(=O)(=O)c2ccc(F)cc2)CC1	1	1	2%	-0.9	-1%	-4
CN(C)S(=O)(=O)c1cccc(NC(=O)CCCc2nc3ccccc3c(=O)[nH]2)c1	3	7	3%	-0.6	?	-34
Cc1ccc(NC(=O)Cn2cccc2)c(Br)c1	-11	-14	3%	1.5	5%	-3
COc1ccc(CN2CCN(Cc3ccco3)CC2)cc1	0	0	-5%	0.1	-37%[15.4 µM]	-10
NC(=O)C(CC(=O)O)NC(=O)[C@@H]1CCOc2c(I)cc([N+](=O)[O-])cc2C(=O)N[C@@H](CCC(=O)O)C(=O)N[C@@H](CO)C(=O)N1 (stereo partly drawn)	-1	4	6%	-3.7	-46%[inhibitor]	-6
O=C(NCc1ccc2c(c1)OCO2)C(=O)NCC1OCCN1S(=O)(=O)c1ccc(Cl)cc1 (stereo not drawn)	-1	-11	-1%	-2.9	-22%	11
CN(C)c1ccc(C(C(=O)NC2CCCC2)N(C(=O)c2csnn2)C2CC2)cc1 (stereo not drawn)	-4	12	-4%	-20	5%[15.4 µM]	-12
O=C(O)C1CCCCC1C(=O)NC1CCCCC1 (stereo not drawn)	8	-1	10%	0.3	2%	-6
Cc1onc(-c2c(F)cccc2Cl)c1C(=O)OCc1cnc(Cl)s1	7	24	-1%	-2.0	-7%	-2
COCCSc1ccccc1C(=O)N1CCCC1	3	7	6%	-1.4	-37%[inhibitor]	0
Cc1ccc(NC(=O)CC2SC(=O)NC2=O)cc1 (stereo not drawn)	-2	6	1%	-8.8	2%[15.4 µM]	-18
Cc1[nH]c2ccccc2c1SCC(=O)N1CCOCC1	-1	-14	12%	-7.1	?	-18
CCc1nnc(NC(=O)c2cc(Cl)ccn2)s1	-77*	-93*	1%	3.9	-2%	-7
Cn1cc(C(=O)c2ccc(Cl)cc2Cl)cc1C=O	12	23	-13%	-0.8	21%[15.4 µM]	1
COc1ccccc1CNC(=O)C1CC(c2ccccc2F)=NO1 (stereo not drawn)	-6	2	4%	0.6	-5%	-1
O=C(Nc1cc(S(=O)(=O)N2CCOCC2)ccc1N1CCCC1)C1CC1	1	-13	5%	-3.6	-22%	-2
CCOC(=S)SCC(=O)Nc1nccs1	-3	-3	-2%	-5.9	-4%[15.4 µM]	-11
C=CCOC(=O)C(C#N)c1nc2ccccc2nc1N1CCN(Cc2ccc3c(c2)OCO3)CC1 (stereo not drawn)	-20	-18	-15%	-1.6	1%	-39
O=C(C1CC1)N1N=C(c2ccc(F)cc2)CC1(O)C(F)(F)F (stereo not drawn)	10	-2	-10%	-2.3	6%[15.4 µM]	-3
O=C(NCCc1ccccc1)C1CCN(C(=O)c2ccc(F)cc2)CC1	-3	4	6%	-3.1	-23%	-3
C[C@H](NC(=O)c1ccco1)C(=O)Nc1ccc(S(=O)(=O)N2CCCC2)cc1	-11	-14	10%	-0.8	3%	-20
CCN1C(=O)[C@@H]2[C@H](C1=O)[C@@H]1C(=O)Nc3ccccc3C(=O)N1[C@@H]2c1cccc(C)c1	0	8	5%	0.2	2%	-10
C[C@@H](C(=O)NCCc1ccccc1)N1C(=O)N2CCc3c([nH]c4ccccc34)[C@@]2(C)C1=O	-11	-5	?	1.6	.	-24
COc1cccc(C(C)(O)c2nc(-c3ccc(OC)c(OC)c3)cs2)c1 (stereo not drawn)	-2	-21	.	12	.	4
O=C(c1ccc([N+](=O)[O-])cc1)N1CCc2ccccc21	0	0	-26%	-15	2%[15.4 µM]	-18
Cc1ccc(S(=O)(=O)NNC(=S)Nc2cccc(F)c2)cc1	3	.	1%	-3.2	4%	4
COC(=O)C1=C(C)NC2=C(C(=O)CCC2)C1c1ccc(-c2ccsc2C(=O)OC)o1 (stereo not drawn)	-2	.	3%	7.9	2%	4
COCCn1c(Cc2ccccc2)nnc1SCC(=O)Nc1ccccc1	2	9	1%	-3.8	6%	-6
CCOC(=O)[C@@H]1[C@H]2COc3ccccc3[C@H]2N2C(=O)N(c3ccc(Cl)cc3)C(=O)[C@]12C	-5	0	-6%	-4.3	.	-11
COc1ccc(C(=S)NCS(=O)(=O)c2ccc(C)cc2)cc1	13	4	7%	-3.9	24%	-19

Of the compounds above, two contain a cyano group.
SMILES	Six1-Eya2 inh	CtBP-E1A blk	gsp antag	D2 ag	gsp ag	D2 PAM
N#Cc1ccccc1COC(=O)CCC(=O)c1cccs1	7	1	11%	2.6	14%	-2
C=CCOC(=O)C(C#N)c1nc2ccccc2nc1N1CCN(Cc2ccc3c(c2)OCO3)CC1 (stereo not drawn)	-20	-18	-15%	-1.6	1%	-39

(continued)
SMILES	Six1-Eya2 inh	CtBP-E1A blk	gsp antag	D2 ag	gsp ag	D2 PAM
Cc1onc(-c2c(F)cccc2Cl)c1C(=O)Nc1ccc(Cl)c(S(=O)(=O)N(C)C)c1	4	1	-21%	2.2	?	2
CCOc1ccc(N/C(=N/c2nc(C)cc(C)n2)NC(C)=O)cc1	-2	2	-15%	-7.7	-14%[15.4 µM]	-3
Cc1ccc(S(=O)(=O)N2CCN(CC(=O)N/N=C/c3cc([N+](=O)[O-])ccc3Cl)CC2)cc1	-12	-12	?	-0.1	-4%	-10
COc1ccccc1NC(=O)Cc1nnc(SCC(=O)Nc2ccc(F)cc2F)n1C	7	2	-4%	6.2	14%	1
COCCN(CC(=O)Nc1cccc(C)c1C)C(=O)c1cc2c(s1)CCC2	-12	-1	5%	1.3	3%	9
COc1ccccc1NC(=O)c1ccc(NC(=O)C2COc3ccccc3O2)cc1 (stereo not drawn)	4	-3	?	1.0	3%	5
Cn1cc(Br)c(C(=O)NC2C3CC4CC(C3)CC2C4)n1 (stereo not drawn)	1	3	-8%	-4.7	-92%[inhibitor]	-17
Cc1c(C)c2ccc(O[C@@H]3O[C@H](CO)[C@H](O)[C@H](O)[C@H]3O)cc2oc1=O	11	9	1%	-1.0	?	-7
Cn1c(/C=C/c2ccccc2)nc2ccccc21	10	.	-10%	-2.6	24%	-14
CCOC(=O)c1cnn(Cc2cccc(Cl)c2)c1C	12	3	.	-2.4	20%[15.4 µM]	-11
O=C(NC1CC1)c1sc2cc(Cl)ccc2c1Cl	5	6	-11%	-3.0	3%[15.4 µM]	-6
COc1ccc2c(C)cc(SCC(=O)NC3CCCCC3)nc2c1	5	-13	1%	-4.0	?	-6
O=C(c1nn(Cc2ccccc2)c(=O)c2ccccc12)N1CCc2ccccc2C1	11	0	?	-3.5	0%	13
CC(C)Oc1cccc(C(=O)NC(=S)Nc2ccccc2)c1	-7	2	-11%	-2.8	-19%	-13
CC(C)(C)c1ccc(C(=O)NCCC(=O)NC2=NCCS2)cc1	0	-7	5%	-2.8	-3%	0

An excerpt of these results, as a markdown table.
| Structure | Six1-Eya2 inh | CtBP-E1A blk | gsp antag | D2 ag | gsp ag | D2 PAM |
| --- | --- | --- | --- | --- | --- | --- |
| COc1ccccc1NC(=O)Cc1nnc(SCC(=O)Nc2ccc(F)cc2F)n1C | 7 | 2 | -4% | 6.2 | 14% | 1 |
| COCCN(CC(=O)Nc1cccc(C)c1C)C(=O)c1cc2c(s1)CCC2 | -12 | -1 | 5% | 1.3 | 3% | 9 |

(listing goes on)
SMILES	Six1-Eya2 inh	CtBP-E1A blk	gsp antag	D2 ag	gsp ag	D2 PAM
CC(C)(C)c1ccc(OC(=O)c2ccccc2)cc1	18	24	6%	-0.2	14%	-4
O=C(C[C@H]1C/C=C\C[C@@H](Cc2ccc(F)cc2)C(=O)O[C@@H](c2ccccc2)CNC1=O)N[C@@H](CO)Cc1ccccc1	-4	.	0%	-1.3	-43%[inhibitor]	-6
Clc1ccc(-c2cc3ccccc3nc2N2CCCC2)cc1	65	34	-3%	-4.4	14%	-7
CC(C)CSc1nnc(N)s1	0	-3	18%	-2.0	20%	-7
O=c1c2ccccc2nc2n1CC/C2=C\N1CCN(c2ccc([N+](=O)[O-])cc2)CC1	-13	-12	-4%	6.1	-24%[15.4 µM]	0
CCOC(=O)c1sc(NC(=O)CSc2nc3cccnc3n2C)nc1C	0	3	-2%	-1.8	-4%	-7
Cn1c(SCc2ccccc2)nc2ccsc2c1=O	0	-8	-22%	2.9	3%[15.4 µM]	-5
COc1ccc(S(=O)(=O)NC(C)c2ccccc2)cc1C(=O)N1CCCCC1 (stereo not drawn)	1	0	4%	-1.5	-15%	-4
CCSc1nc2ccccc2n1C(=O)/C=C\c1ccc(OC)c(OC)c1	0	-8	-11%	-3.6	0%[15.4 µM]	0
Cc1cc(=O)oc2cc(NC(=O)c3cccc(S(=O)(=O)N(C)C)c3)ccc12	5	2	4%	2.4	-1%	1
CCc1ccc(OCC(=O)NCCOc2ccccc2)cc1	8	4	-5%	-1.3	5%	-11
CCCC[n+]1ccn(-c2nc3ccccc3nc2[N-]S(=O)(=O)c2ccc(Br)cc2)c1	1	0	0%	-11	-7%[15.4 µM]	-3
CC(C(=O)Nc1cc([N+](=O)[O-])ccc1Cl)N1CCN(c2ccc(O)cc2)CC1 (stereo not drawn)	-20	-15	6%	7.4	-25%	14
